MT1-MMP act inh – MT1-MMP (human) activation inhibition; GFP/RFP ratio change, % at 20 µM; P50281; 0.061% of 360,000 active; HT1080 RFP-PRO-GFP cells, GFP/RFP ratio fluorescence, overnight; percent of plate control window, DMSO zero;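 active = GFP/RFP ratio change of at least 30% with cell ATP level not reduced by more than half and red fluorescence within 50% of control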; also: strong numbers were not always called active
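system = RFP-PRO-GFP reporter HT1080 cells | dosing = 20 µM single dose, 1% DMSO | timing = overnight cell settling, then overnight compound exposure, 37 °C, 5% CO2 | read-out basis = GFP/RFP fluorescence ratio | controls = DMSO and RFP-L50D-GFP cell wells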
PABP polyA inh – blocks human PABP binding to poly(A) RNA; 1% of 290,000 active; fluorescence polarization; inhibition, % at 35 µM;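 active = 50% or more with normal probe brightness, or confirmed in later tests; inconclusive = above 50% with abnormal brightness, or retests that disagree; inactive = below 50% or failed in later tests; about a fifth of its hits are not listed in these tables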;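 also: calls also rest on retests at 20 µM and on dose response follow-up; controls were probe without protein and protein plus probe with vehicle; some compounds called inactive have numbers as strong as hits; many hits fall short of the cut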
Yeast UUG start – modulators of start codon recognition fidelity in yeast; AID 602363; 0.13% of 350,000 active; S. cerevisiae UUG-firefly luciferase reporter, luminescence/redox ratio; activity score, % at 18.7 µM;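 active = replicate mean at a twofold rise or more, about +100% in these data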;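 also: firefly luciferase made from a UUG start codon reports start codon fidelity; reporter light over untreated wells divided by growth signal over untreated wells; some hits fall short of that in this replicate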
eIF4H inh – inhibitors of RNA binding by human eIF4H. eIF4H fluorescence polarization binding assay. inhibition, % at 35 µM. 0.94% of 290,000 active;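 active = 50% or more with normal probe brightness, or confirmed in later tests; inconclusive = above 50% with abnormal brightness, or retests that disagree; inactive = below 50% or failed in later tests; about a fifth of its hits are not listed in these tables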;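 also: calls also rest on retests at 20 µM and on dose response follow-up; 0% = protein and probe with vehicle and 100% = probe without protein; strong numbers were not always called active; many hits fall short of the cut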
Env fusion inh – inhibitors of HIV Env-mediated cell fusion | HeLa-JRFL Env/CEM21 cell fusion, luciferase | inhibition, % at 12.3 µM | 1.1% of 360,000 active | AID 651610;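 active = mean replicate inhibition score of at least 50 and every replicate individually at or above 50; inconclusive = only one of the two criteria met; inactive = mean below 50 and not all replicates reaching 50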;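 also: 0% = plate neutral controls and 100% = maraviroc near 300 nM; one replicate is shown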
CSC inhib – cancer stem cell inhibition; cancer stem cell-like cells viability, luminescence; inhibition, % at 7.5 µM; 1.1% of 300,000 active; AID 2717;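 active = mean at 75% or more and at least half the replicates too; inconclusive = mean and replicates disagree; tested in HMLE shEcad cells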;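 also: 0% = median of negative and 100% = median of positive control wells; the first replicate is given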
Rce1 inh – inhibitors of yeast Ras-converting enzyme. Q03530. yeast membranes, quenched prenylated peptide cleavage fluorescence. calls only. 0.27% of 290,000 active;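 active = fall in fluorescence gain of 50% or more versus controls, with final raw signal at or below 3038400; inconclusive = same 50% fall but final raw signal above 3038400; inactive = fall in fluorescence gain under 50%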;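 also: plate controls were neutral control wells for no effect and wells lacking membranes for full effect; tested at 10 µM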
Target sequence (Q03530 whole entry, looked up): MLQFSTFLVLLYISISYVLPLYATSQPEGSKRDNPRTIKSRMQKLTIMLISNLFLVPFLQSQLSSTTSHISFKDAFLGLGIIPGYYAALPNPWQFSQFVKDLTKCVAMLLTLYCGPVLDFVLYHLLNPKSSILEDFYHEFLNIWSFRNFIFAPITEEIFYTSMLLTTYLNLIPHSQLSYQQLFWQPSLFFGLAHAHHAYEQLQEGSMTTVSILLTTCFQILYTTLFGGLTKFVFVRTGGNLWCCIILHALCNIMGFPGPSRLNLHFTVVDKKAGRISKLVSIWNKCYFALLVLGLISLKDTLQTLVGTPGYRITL
eIF4H inh retest – also measured in eIF4H inh; calls as there; inhibition, %; compound at 20 µM; confirmation average;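 mean of two retest wells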
PABP polyA inh retest – second read-out of PABP polyA inh, no call of its own (marks repeat the call); inhibition, %; compound at 20 µM; confirmation repeats;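 mean of two retest wells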
MT1-MMP act inh RFP – further read-out of MT1-MMP act inh, marked with its call; RFP signal change, %; measured here: RFP expression control read;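 0 = vehicle wells; hits needed this value within 50% of zero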
Starred values were filed as active, the others as inactive; i = inactive; u = inconclusive; x = not tested or not shown; & = joins results of further samples.

SMILES	MT1-MMP act inh	MT1-MMP act inh RFP	PABP polyA inh	Yeast UUG start	eIF4H inh	Env fusion inh	CSC inhib	Rce1 inh	others
COc1ccc(S(=O)(=O)N2CCCCC2)cc1NC(=O)CSc1nnc(C2CC2)n1C	3	1	x	-6	x	x	-14	x
CCCNC(=O)C1CCC(CNS(=O)(=O)c2ccc3c(c2)N(C(C)=O)CCO3)CC1 (stereo unspecified)	0	-1	-1	-13	-3	1	-14	i
CCC(=O)NNC(=S)NC(=O)c1ccc(C)cc1	7	0	-1	x	0	6	-8	i
CC(=O)NS(=O)(=O)c1ccc(NC(=O)c2oc3c(Cl)cccc3c2C)cc1	x	x	3	x	-6	x	-7	i
CC(C)(C)C(=O)Nc1ccc(S(=O)(=O)Nc2nccs2)cc1	3	8	-6	-11	0	6	2	i
COc1ccc(N2CCN(C(=O)CN(c3ccc(OC)cc3)S(=O)(=O)c3ccccc3)CC2)cc1	-1	-4	-6	-7	-3	9	-1	i
Cc1cccc(/N=C/c2c(O)cc(C)oc2=O)n1	-7	5	107*	-2	78*	x	-9	i
CN(C)CCNC(=O)c1ccccc1-c1ccccc1	7	6	7	12	1	22	-6	i
OC1(c2ccc(Br)cc2)CCNCC1	7	-1	-9	-5	-2	-2	8	i
O=C(NC1CC1)c1cc2cc(Br)ccc2s1	2	-4	16	-10	3	-9	2	i
O=C(c1cccc(Cl)c1)N1CCN(Cc2ccc3c(c2)OCO3)CC1	3	2	6	9	1	-2	-6	i
Cc1ccnc(NC(=O)CCC(=O)N(CC(=O)NC(C)(C)C)Cc2ccc3c(c2)OCO3)c1	-3	2	8	x	2	-2	x	i
CC1Cc2nc(SCC(=O)Nc3nccs3)n(C)c(=O)c2S1 (stereo unspecified)	1	4	-14	10	-5	-2	-5	i
COc1cccc(CN(C)CC(=O)NNC(=O)c2ccc(Cl)cc2)c1	3	0	u	-9	-6	-7	x	i
Cc1ccc(NC(=O)CCS(=O)(=O)c2ccc3c(c2)NC(=O)C(C)S3)cc1Cl (stereo unspecified)	7	-1	19	-21	-4	8	-5	i
CCNS(=O)(=O)c1ccc(CCC(N)=O)cc1	6	2	-1	x	-6	13	-12	i
COc1c2c(nc3occc13)C(CC=C(C)C)(OC)C(OC(C)=O)CC2 (stereo unspecified)	12	0	3	-18	0	-30	-2	i
CC(C)(C)c1ccc(C(=O)N2CCN(c3ncccn3)CC2)cc1	1	-4	6	-14	14	10	2	i
COc1cc(/C=C/C(=O)OCC(=O)Nc2ccc3c(c2)OCCO3)ccc1O	-3	-1	-7	-6	-10	5	18	i
COc1ccc(Cl)cc1NC(=O)CCS(=O)(=O)c1cc2c(cc1C)NC(=O)CO2	0	1	-1	-8	4	-7	-2	i
CN1C(=O)c2ccc(NC(=O)c3cccc4ccccc34)cc2C1=O	2	3	-21	-17	-10	6	-3	i
CCOc1ncccc1C(=O)OCc1cccc([N+](=O)[O-])c1	3	5	4	-7	-12	0	-14	i
O=C(CN1CCN(c2ccc(Cl)cc2)CC1)c1ccc2c(c1)OCO2	3	-2	7	-7	-1	x	7	i
COC(=O)C1(C)NC(c2cccs2)C2C(=O)N(c3ccccc3F)C(=O)C21 (stereo unspecified)	-2	9	6	5	4	-96	14	i
CCN(C(=O)CN1C(=O)NC(c2ccccc2)(c2ccc(C)c(C)c2)C1=O)C1CCCCC1 (stereo unspecified)	2	-10	x	-6	x	-1	32	x
CCC1CCCCN1Cc1ccc(OC)c(C)c1 (stereo unspecified)	9	5	5	7	-8	-44	15	i
Cc1ccc(-n2cnc3c(sc4nc(N5CCOCC5)c5c(c43)CCCC5)c2=O)cc1	-6	-12	1	-11	-5	9	7	i
Cc1cccc(NC(=O)C2CCCN(C(=O)Nc3ccc(F)cc3)C2)c1 (stereo unspecified)	3	2	-4	1	8	9	x	i
Cc1cc(C)c(C(=O)CN2C(=O)NC3(CCC(C)CC3)C2=O)cc1C (stereo unspecified)	-2	-3	7	-6	-2	-8	6	i
O=Cc1cn(CCOc2ccc(F)cc2)c2ccccc12	5	-5	x	17	x	-28	x	x
CC1CC(C)CN(C(=S)Nc2ccc3nc4n(c(=O)c3c2)CCCCC4)C1 (stereo unspecified)	5	-2	-4	-15	2	6	x	i
Cc1cc(=O)oc2cc(OCc3ccc(C(=O)OCC(=O)Nc4ccc(N(C)C)cc4)cc3)ccc12	-1	7	3	x	10	12	x	i
Cn1c(COc2ccccc2)nc2ccccc21	1	1	-8	-17	-6	-43	1	i
O=C(CN1C(=O)NC2(CCCC2)C1=O)Nc1ccccc1N1CCCCC1	-2	5	x	1	x	x	-4	i
CC(=O)c1ccsc1-c1c(C)cc2oc(=O)cc(-c3ccccc3)c2c1C	-4	-7	x	-11	x	2	x	x
Cc1onc(-c2ccc(Cl)cc2Cl)c1-c1csc(COc2ccccc2)n1	-2	-6	-1	x	-1	13	25	i
CCSc1nnc(NC(=O)CSc2c(Cl)cccc2Cl)s1	-15	-5	8	-16	1	-34	-2	i
CCc1nnc(NC(=O)CSc2nnc(CNc3ccc(OC)cc3)n2C)s1	3	4	0	-23	25	-24	2	i
O=C(NC1CC1)c1ccc(CSCc2ccccc2Cl)o1	1	-17	x	3	x	-8	-11	i
COc1ccc(-n2c(Cc3cccn3C)nnc2SCC(=O)Nc2ccc(F)cc2)cc1	4	6	-18	-8	7	2	-23	i
Cc1ccc(S(=O)(=O)N(C)C[C@H]2Oc3cc(Br)ccc3S(=O)(=O)N([C@H](C)CO)C[C@H]2C)cc1	-7	-6	x	-2&2&-4	x	u	x	x
Cc1c(Cl)cccc1NC(CC(=O)c1ccccc1)C(=O)O (stereo unspecified)	3	7	-7	x	2	-19	x	i
NC(Cc1ccc(C(F)(F)F)cc1)c1csc(Nc2ccccn2)n1 (stereo unspecified)	-1	3	x	-7	x	6	x	x
CCN(CC(=O)NCc1ccc(F)cc1)C(=O)c1cc2ccccc2o1	4	-3	-6	-3	1	-3	-15	x
O=C(COC(=O)c1ccncc1)Nc1cc(Cl)ccc1Cl	-2	2	4	-13	-8	x	-6	i
CC(=O)Nc1ccc(S(=O)(=O)Nc2ccc3c(c2)OCCO3)cc1	0	-9	-7	x	0	x	3	i
O=C1CCCC(=O)C1=C1SCCCS1	-11	-2	-6	-13	-10	-34	-17	i
COc1cccc(NC(=O)CN2CCN(CC(=O)Nc3ccc(F)cc3)CC2)c1	-2	-1	-1	-8	-1	1	-9	i
Cc1ccc(C(=O)OCC(=O)N2CC(C)OC(C)C2)cc1 (stereo unspecified)	3	5	1	-12	2	11	-9	i
Cc1oc2cc(OC(C)C(=O)O)ccc2c(=O)c1Oc1ccccc1 (stereo unspecified)	0	4	3	-1	-6	-17	-15	i
C/C(=N/OC(=O)c1c(-c2ccccc2Cl)noc1C)c1cnccn1	2	2	1	x	0	2	1	i
CN(C)/C=C(\C#N)C(=O)c1cccnc1Oc1cccc(F)c1	2	5	5	12	-15	-69	2	i
C=CCn1c(SCC(=O)Nc2cc(NC(C)=O)ccc2OC)nnc1-c1cccnc1	-2	-3	1	-8	-5	-34	-5	i
O=[N+]([O-])c1ccccc1S(=O)(=O)Nc1ncccn1	-6	-1	10	-10	-3	-18	-4	i
CC(C)C(C)NC(=O)COC(=O)c1cc(S(=O)(=O)N(C)C)ccc1N1CCCC1 (stereo unspecified)	x	x	50	x	-7	x	-11	i
Cc1ccc(C)c(S(=O)(=O)N2CCN(C(=O)c3ccncc3)CC2)c1	3	-8	x	-14	x	-224	-17	i
CCOC(=O)N1CCN(C(=O)C2CCN(c3ncnc4c3sc3cccc(F)c34)CC2)CC1	-3	-22	1	x	-3	x	5	i
C[C@@H](O)[C@H]1O[C@]2(C)CCC[C@H]1O2	-2	1	x	-16	x	16	-4	x
Cc1c(O)c(CN2CCCCC2)cc2c1oc(=O)c1ccccc12	-3	-3	-8	x	-8	x	-2	i
Cn1nnnc1SCC(=O)NNC(=O)c1ccc(Cl)cc1	3	4	1	x	8	-6	-3	i

Ordered by molar mass (descending): 11 of the compounds above.
SMILES	MT1-MMP act inh	MT1-MMP act inh RFP	PABP polyA inh	Yeast UUG start	eIF4H inh	Env fusion inh	CSC inhib	Rce1 inh	others
Cc1ccc(S(=O)(=O)N(C)C[C@H]2Oc3cc(Br)ccc3S(=O)(=O)N([C@H](C)CO)C[C@H]2C)cc1	-7	-6	x	-2&2&-4	x	u	x	x
COc1cccc(NC(=O)CN2CCN(CC(=O)Nc3ccc(F)cc3)CC2)c1	-2	-1	-1	-8	-1	1	-9	i
NC(Cc1ccc(C(F)(F)F)cc1)c1csc(Nc2ccccn2)n1 (stereo unspecified)	-1	3	x	-7	x	6	x	x
Cc1ccc(C)c(S(=O)(=O)N2CCN(C(=O)c3ccncc3)CC2)c1	3	-8	x	-14	x	-224	-17	i
C/C(=N/OC(=O)c1c(-c2ccccc2Cl)noc1C)c1cnccn1	2	2	1	x	0	2	1	i
CCN(CC(=O)NCc1ccc(F)cc1)C(=O)c1cc2ccccc2o1	4	-3	-6	-3	1	-3	-15	x
CC(=O)Nc1ccc(S(=O)(=O)Nc2ccc3c(c2)OCCO3)cc1	0	-9	-7	x	0	x	3	i
Cn1nnnc1SCC(=O)NNC(=O)c1ccc(Cl)cc1	3	4	1	x	8	-6	-3	i
Cc1c(Cl)cccc1NC(CC(=O)c1ccccc1)C(=O)O (stereo unspecified)	3	7	-7	x	2	-19	x	i
O=[N+]([O-])c1ccccc1S(=O)(=O)Nc1ncccn1	-6	-1	10	-10	-3	-18	-4	i
O=C1CCCC(=O)C1=C1SCCCS1	-11	-2	-6	-13	-10	-34	-17	i

Carrying on.
SMILES	MT1-MMP act inh	MT1-MMP act inh RFP	PABP polyA inh	Yeast UUG start	eIF4H inh	Env fusion inh	CSC inhib	Rce1 inh	others
O=C1c2ccccc2C(=O)C12OC(c1ccccc1)C1(C(=O)c3ccccc3C1=O)C2c1ccc([N+](=O)[O-])cc1 (stereo unspecified)	-3	2	x	-16	x	-29	15	i
Cc1ccn2cc(CCNS(=O)(=O)c3ccc4ccccc4c3)nc2c1	0	2	-6	3	-12	28	-2	i
O=S(=O)(Nc1ccc(-c2cn3c(n2)SCC3)cc1)c1ccccc1F	0	-2	1	-18	-9	-7	-9	i
CCCNC(=O)C1(C)CCN(C(=O)c2ccccc2OC)C1 (stereo unspecified)	3	8	x	-15	x	-8	x	x
S=C(Nc1ccc(Cl)cc1Cl)NC1CCCCC1	3	-5	-17	-11	6	x	3	i
CC1Cc2ccccc2N1C(=O)CN(C)CC(=O)Nc1ccc(OC(F)(F)F)cc1 (stereo unspecified)	-2	-2	x	-5	x	18	x	x
COc1ccccc1C(=O)N1CCN(C(=O)c2oc3c(C)c(C)ccc3c2C)CC1	-3	-11	x	-10	x	13	x	x
CC[n+]1c(C)sc2sc3ccccc3c21	x	x	55*	x	15	x	-2	i	eIF4H inh retest=8;PABP polyA inh retest=83*

Bioassay records from PubChem.

The order is random; any-hit rate near 3%.
